# MT1-MMP act inh: blockers of MT1-MMP proenzyme processing, primary screen, HT1080 RFP-PRO-GFP cells, GFP/RFP fluorescence; Matrix metalloproteinase-14 (Homo sapiens), P50281; GFP/RFP ratio fluorescence, overnight; percent of plate control window, DMSO zero; 360,000 compounds, 0.061% hits; GFP/RFP ratio change, % at 20 µM; AID 651647, 2012;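 active = GFP/RFP ratio change of at least 30% with cell ATP level not reduced by more than half and red fluorescence within 50% of control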; note: strong numbers were not always called active
#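 Test system: HT1080 RFP-PRO-GFP cells; Benchmarks: DMSO and RFP-L50D-GFP cell wells; Timing: cells overnight before dosing, compound overnight, 37 °C, 5% CO2; Compound: one 20 µM compound dose with 1% DMSO; Read-out: GFP/RFP fluorescence ratio.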
# CSC inhib: cancer stem cell viability inhibitors, primary screen, luminescence | 300,000 compounds, 1.1% hits | inhibition, % at 7.5 µM | cancer stem cell-like cells viability | AID 2717, 2010;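 active = mean at 75% or more and at least half the replicates too; tested in HMLE shEcad cells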;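 note: 0% = median of negative and 100% = median of positive control wells; the first replicate is given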
# eIF4H inh: human eIF4H binding inhibitors, primary screen, translation initiation inhibitor project, biochemical, uHTS, fluorescence polarization; Eukaryotic translation initiation factor 4H (Homo sapiens), Q15056; eIF4H fluorescence polarization binding assay; inhibition, % at 35 µM; 290,000 compounds, 0.94% hits; AID 2012, 2009;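 active = 50% or more with normal probe brightness, or confirmed in later tests; about a fifth of its hits are not listed in these tables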;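 note: calls also rest on retests at 20 µM and on dose response follow-up; 0% = protein and probe with vehicle and 100% = probe without protein; strong numbers were not always called active; many hits fall short of the cut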
# HIV Env fusion: inhibitors of HIV-1 Env-driven cell-cell fusion, primary screen, HeLa-JRFL effector, CEM21 target cells, luciferase; inhibition, % at 12.3 µM; 360,000 compounds, 1.1% hits; AID 651610, 2012;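 active = mean replicate inhibition score of at least 50 and every replicate individually at or above 50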;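 note: 0% = plate neutral controls and 100% = maraviroc near 300 nM; one replicate is shown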
# Rce1 inhib: yeast Rce1p protease inhibitors, primary screen, biochemical, fluorescence, cell-free homogeneous; calls only; yeast membranes, quenched prenylated peptide cleavage fluorescence; CAAX prenyl protease 2 (Saccharomyces cerevisiae (strain ATCC 204508 / S288c)), Q03530; 290,000 compounds, 0.27% hits;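 active = fall in fluorescence gain of 50% or more versus controls, with final raw signal at or below 3038400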;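 note: plate controls were neutral control wells for no effect and wells lacking membranes for full effect; tested at 10 µM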
# UUG fidelity: modulators of yeast start codon fidelity, primary screen, whole organism, S. cerevisiae, single point, plate reader; S. cerevisiae UUG-firefly luciferase reporter, luminescence/redox ratio; activity score, % at 18.7 µM; 350,000 compounds, 0.13% hits;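 active = replicate mean at a twofold rise or more, about +100% in these data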;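 note: firefly luciferase made from a UUG start codon reports start codon fidelity; reporter light over untreated wells divided by growth signal over untreated wells; some hits fall short of that in this replicate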
# PABP FP inh: PABP poly(A) RNA binding inhibitors, primary screen, biochemical, fluorescence polarization, uHTS. 290,000 compounds, 1% hits. Polyadenylate-binding protein 1 (Homo sapiens), P11940. inhibition, % at 35 µM;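 active = 50% or more with normal probe brightness, or confirmed in later tests; about a fifth of its hits are not listed in these tables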;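 note: calls also rest on retests at 20 µM and on dose response follow-up; controls were probe without protein and protein plus probe with vehicle; some compounds called inactive have numbers as strong as hits; many hits fall short of the cut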
# Target sequence (P11940 whole entry, looked up): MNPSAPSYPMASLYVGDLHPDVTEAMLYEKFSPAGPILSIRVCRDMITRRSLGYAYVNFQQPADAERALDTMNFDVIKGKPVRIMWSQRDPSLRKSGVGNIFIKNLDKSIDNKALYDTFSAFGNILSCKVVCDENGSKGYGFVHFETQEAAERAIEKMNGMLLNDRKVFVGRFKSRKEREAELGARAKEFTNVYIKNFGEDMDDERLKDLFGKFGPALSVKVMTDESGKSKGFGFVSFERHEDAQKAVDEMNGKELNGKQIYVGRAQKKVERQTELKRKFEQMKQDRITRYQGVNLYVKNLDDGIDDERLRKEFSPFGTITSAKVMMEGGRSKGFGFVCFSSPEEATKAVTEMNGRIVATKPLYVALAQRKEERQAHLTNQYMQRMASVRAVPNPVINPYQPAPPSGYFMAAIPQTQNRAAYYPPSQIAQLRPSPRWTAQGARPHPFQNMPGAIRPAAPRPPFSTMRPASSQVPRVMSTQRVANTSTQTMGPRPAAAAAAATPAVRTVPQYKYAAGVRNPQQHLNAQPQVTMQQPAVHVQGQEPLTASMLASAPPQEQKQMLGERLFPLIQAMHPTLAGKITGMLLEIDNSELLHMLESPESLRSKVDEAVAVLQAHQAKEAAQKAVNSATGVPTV
# eIF4H inh retest: further read-out of eIF4H inh, marked with its call; inhibition, %; compound at 20 µM; confirmation average;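 mean of two retest wells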
# PABP FP inh retest: recorded beside PABP FP inh, whose call it bears; inhibition, %; compound at 20 µM; confirmation repeats;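 mean of two retest wells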
# MT1-MMP act inh RFP: further read-out of MT1-MMP act inh, marked with its call; RFP signal change, %; measured here: RFP expression control read;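 0 = vehicle wells; hits needed this value within 50% of zero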
# * marks the source's active call; other numbers are inactive results; i = inactive; / = not tested or not shown. Not all compounds are listed, so the mix of outcomes need not match the whole.
SMILES,MT1-MMP act inh,MT1-MMP act inh RFP,CSC inhib,eIF4H inh,HIV Env fusion,Rce1 inhib,UUG fidelity,PABP FP inh,others
O=c1nc(SCc2c(F)cccc2Cl)nc(-c2ccc(Cl)cc2)[nH]1,0.3,0.4,42.2,3.3,8.8,i,/,-1.6,
CCCc1nc2oc3ccccc3c(=O)c2c(=O)n1CCCOC,-2.7,-1.1,-4.8,-0.4,-2.7,i,-8.1,1.1,
CCOC(=O)C1CCN(Cc2cccc(Oc3ccccc3)c2)CC1,-1.5,0.2,-5.5,3.1,-10.2,i,0.2,-2.8,
Cc1ccc(S(=O)(=O)N2CCN(C(=O)c3ccc(S(=O)(=O)N4CCCC4)cc3)CC2)cc1,-1.2,-3.9,55.6,-6.2,-1.5,i,-8.7,-15.0,
O=C(CSc1nc2ccccc2s1)Nc1ccc2c(c1)OCO2,0.2,0.5,-7.6,-5.4,-10.8,i,/,-4.2,
Nc1[nH][nH]c(=O)c1N=Nc1cccc(Cl)c1,2.4,-0.2,-6.5,-3.5,-10.5,i,-9.5,3.4,
CN(Cc1ccc(-n2cccn2)cc1)C(=O)c1cnn2c1NC(c1ccco1)CC2C(F)(F)F (stereo not given),-18.8,-14.4,/,6.0,/,/,9.5,-2.4,
O=C(Nc1cccs1)Nc1ccc(Br)cc1F,-16.3,-19.4,18.7,6.7,/,i,-10.4,-5.2,
O=C(COC(=O)c1cnccn1)c1ccc(-c2ccccc2)cc1,-3.4,3.2,-9.8,/,4.6,i,/,/,
COc1cc(OC)c2c(c1O)OC(c1ccccc1)CC2=O (stereo not given),0.4,1.6,-15.7,/,/,i,-7.0,/,
COc1cccc(OC)c1C(=O)OCc1c(-c2ccccc2)ncc2ccccc12,-1.1,-7.2,2.5,/,13.4,/,-1.0,/,
O=C(COC(=O)c1ccc2ncsc2c1)NC(=O)NCc1ccccc1,-1.6,-1.5,-6.4,-3.9,-0.2,i,/,-8.7,
CC(=Nc1ccc(C)c(C)c1)C1=C(O)CCC1=O,2.6,3.3,8.4,0.8,/,i,-6.1,6.7,
COc1cccc(OCC(O)CN2CCC(Cc3ccccc3)CC2)c1 (stereo not given),1.7,1.9,21.8,-11.3,/,i,/,2.1,
O=[N+]([O-])c1cc([N+](=O)[O-])c(Oc2cc(Cl)cc(Cl)c2)cc1NN1CCCCC1,-4.1,-2.3,11.1,/,12.8,/,-2.0,/,
Cc1nn(C)c(C)c1CNC(=O)/C=C/c1ccccc1F,0.4,-4.6,-7.4,0.6,-3.1,i,-20.1,3.4,
COc1ccc(NC(=O)c2cc(-c3cc(F)ccc3OC(C)C)n[nH]2)cc1OC,-3.6,-4.5,/,/,-17.6,/,-38.5,/,
CCC(=O)Nc1c2c(nn1-c1ccccc1)CSC2,-2.7,4.3,-5.7,-2.5,19.5,i,-7.2,6.5,
CC(=O)Nc1ccc(CN2C(=O)C(CCc3ccccc3)ON=C2c2cnccn2)cc1 (stereo not given),2.4,2.3,/,/,-14.0,/,-11.8,/,
Cc1csc(NC(=O)c2ccco2)n1,0.0,1.4,10.5,-6.8,/,i,-20.5,-4.1,
COc1ccc2cc(C(=O)NCc3ccco3)c(=O)oc2c1,10.1,7.4,12.5,-3.8,/,i,-16.9,1.5,
CSc1cccc(NC(C)=O)c1,-1.1,4.0,2.8,1.4,/,i,/,-4.1,
O=C(O)c1sccc1NC(=O)c1c(Cl)cccc1Cl,-1.0,2.0,-1.7,-8.2,-0.5,i,9.7,1.1,
O=C1NC2c3ccccc3CC2O1 (stereo not given),-2.3,-6.7,-15.7,-3.8,-14.0,i,-16.3,0.4,
COc1ccc(NC(=O)CN(C)S(=O)(=O)c2ccc(Br)s2)cc1,0.2,-1.6,12.5,3.7,4.6,i,-10.3,8.1,
C=CCC1(C#N)C(=S)NC2=C(C(=O)CC(C)(C)C2)C1c1ccc(Br)cc1 (stereo not given),0.3,3.3,-3.7,-5.9,1.9,i,-16.1,1.9,
CC(C)c1ccc(C2C(C(=O)c3ccco3)=C(O)C(=O)N2CC2CCCO2)cc1 (stereo not given),-3.8,-3.3,2.1,-4.3,8.3,i,-13.7,-0.4,
COc1ccc(OC)c(NC(=O)c2cnc(Nc3ccccc3OC)c3ccccc23)c1,3.7,-15.0,0.0,-1.7,/,i,-5.9,3.4,
COc1cc(OC)c(Nc2cc(C)nc3nc(C)nn23)cc1Cl,2.1,6.2,-7.5,-11.4,9.0,i,-5.4,-10.1,
Cc1[nH]n(-c2ccccc2)c(=O)c1/C=N/NC(=O)C(C)C,-0.5,-3.0,2.4,11.7,13.2,i,-33.0,43.3,
Cc1ncc([N+](=O)[O-])n1CC(=O)NCCc1ccccc1,-2.4,0.5,20.3,26.1,8.6,/,/,-2.6,
COc1ccc(-c2noc(CCCOc3ccc(Cl)cc3Cl)n2)cc1,-2.1,-2.5,-5.9,10.7,-2.6,i,-15.2,-1.6,
Nc1nc2c(ccc3ccccc32)s1,3.9,0.7,-11.0,/,-25.3,i,/,/,
CCOc1ccc(NC(=O)Cn2sc3nc(C)cc(C)c3c2=O)cc1,-4.9,4.0,11.1,-10.5,/,i,/,-4.2,
COc1ccc(-n2nc(C(=O)N3CCCCC3)c3ccccc3c2=O)cc1,0.8,1.5,-12.9,-10.0,/,/,0.7,-4.6,
N#CCCn1cc(C(CC(=O)c2ccccc2)C(=O)O)c2ccccc21 (stereo not given),-0.5,1.0,-1.5,-5.0,14.9,i,-7.3,-4.3,
COc1cccc(OC)c1C(=O)Nc1ccnn1C,1.2,5.4,/,-10.8,/,i,-5.8,-12.1,
CCOC(=O)CSc1ncc(OC)c(=O)[nH]1,-3.8,2.4,-7.6,-11.9,-6.9,i,-20.0,-2.9,
CS(=O)(=O)N(Cc1ccccc1)c1ccc(C(=O)NCc2ccccc2)cc1,-2.6,-6.1,-7.8,1.1,-14.4,i,-17.6,3.0,
CCc1nc2ccc(C(=O)NCCc3ccccn3)cn2c1N(C)Cc1cccs1,0.7,-1.9,/,/,7.7,/,-32.9,/,
CC(C(=O)Nc1cc([N+](=O)[O-])ccc1Cl)N1CCN(c2ccccc2)CC1 (stereo not given),0.7,5.4,-10.6,2.5,0.4,i,/,-6.2,
Cc1ccc(S(=O)(=O)Nc2ccc(S(=O)(=O)NC(C)(C)C)cc2)cc1,1.0,-3.2,-7.1,-8.9,i,/,-9.0,-5.3,
Cc1cccc(NC(=O)C2CCCN(S(=O)(=O)c3ccc4[nH]c(=O)ccc4c3)C2)c1 (stereo not given),-1.8,-8.3,-10.7,-23.1,16.8,i,-2.5,-7.6,
N/C(=N\OC(=O)c1ccc(Cl)c(Cl)c1)c1ccccn1,-1.7,-4.7,/,-1.4,-94.3,i,-60.2,-4.6,
O=C(OCC(=O)N1CCN(C(=O)c2ccco2)CC1)c1ccccc1C(=O)c1ccccc1,-2.2,7.5,-1.8,-9.5,/,i,4.1,-1.4,
CC(C)(C)c1ccc(NC(=O)N2CCCN(c3c(Cl)cncc3Cl)CC2)cc1,5.8,1.3,77.3*,-3.9,6.9,i,/,-3.2,
CN(C(=O)CSC1=NC2C(N=N1)c1cc(Br)ccc1N2C)C1CCCCC1 (stereo not given),-4.1,0.1,-1.4,1.3,-4.6,i,-6.9,-7.2,
Cc1noc(C)c1CCC(=O)N1CCCC(CCC(=O)NCc2ccccc2F)C1 (stereo not given),/,/,3.8,-6.6,31.0,/,/,3.6,
COC(=O)[C@@]1(Cc2ccc(F)cc2)[C@H]2c3cc(C(=O)N(C)C)n(Cc4ccccc4)c3C[C@H]2CN1C(=O)c1ccccc1,/,/,14.6,88.5,-71.3,/,/,0.0,eIF4H inh retest=29.9;PABP FP inh retest=9.5
Fc1ccccc1Sc1ccccc1CNC1=NCCN1,-4.2,-7.6,/,17.5,-6.8,i,-4.8,9.7,
CC(C)CC(=O)Nc1ccc2oc(-c3ccncc3)nc2c1,7.7,5.5,-1.1,-4.8,/,i,-21.9,-16.5,
O=C(CN1C(=O)NC2(CCCC2)C1=O)Nc1ccc(C(F)(F)F)cc1,-0.2,0.7,11.0,-0.1,-10.4,i,-4.1,15.2,
NS(=O)(=O)c1ccc(Nc2ccccc2)c([N+](=O)[O-])c1,/,/,-0.9,6.2,-25.2,i,/,16.5,
O=C(O)C1C2CCC(O2)C1C(=O)Nc1ccc(Cl)cc1F (stereo not given),4.4,6.4,1.2,10.8,-4.8,i,-5.5,-5.9,
O=C(c1ccccc1C(=O)N1CCN(c2ccc(F)cc2)CC1)N1CCN(c2ccc(F)cc2)CC1,2.5,-5.2,/,20.6,-9.2,i,5.9,21.6,
COc1ccccc1C(=O)NCCC(=O)OCC(=O)Nc1ccc(S(N)(=O)=O)cc1,-1.0,2.8,-4.9,/,4.6,/,-4.7,/,
C#CCNC(=O)c1ccc(OCc2ccccc2)cc1Cl,3.6,-0.7,/,0.4,-11.4,i,/,-3.6,
COc1ccc(/C=N\NC(=O)c2ccc([N+](=O)[O-])c(C)c2)cc1COc1ccccc1C(N)=O,4.4,-3.3,-5.4,-10.4,6.6,i,-13.6,-0.5,
Cc1cccc(C)c1NC(=O)Cn1c(=O)n(CCCC(=O)NC2CCN(Cc3ccccc3)CC2)c(=O)c2ccccc21,-3.9,-7.3,-12.2,-2.8,-1.4,i,-12.2,-2.4,
COc1cc(Cl)cc(C=O)c1OCC(=O)O,0.0,-6.2,3.3,-8.0,15.7,i,-12.3,2.5,

# Next section.
SMILES,MT1-MMP act inh,MT1-MMP act inh RFP,CSC inhib,eIF4H inh,HIV Env fusion,Rce1 inhib,UUG fidelity,PABP FP inh,others
CN(C)CCCN(C(=O)c1cc2ccccc2oc1=O)c1nc2c(F)cccc2s1,-0.3,0.2,/,-7.8,/,i,5.6,-13.1,
COC(=O)c1cc2ccccc2c(=O)s1,0.2,3.2,-14.7,9.0,/,i,-19.5,-2.9,
COCCCNC(=O)Cn1ccc(NC(=O)OCc2ccccc2)nc1=O,-4.8,6.0,6.8,/,-26.0,/,-9.6,/,
COc1cc(-c2coc3c(C(=O)NCc4cccc(Cl)c4)cccc23)ccc1O,5.3,-8.8,/,/,-13.3,/,-4.7,/,
CCO/C(C)=C1\C(=O)Nc2ccccc21,-0.9,3.4,-10.4,-8.1,/,i,-9.5,8.6,
COC(=O)c1cc(-c2ccc(OC)c(OC)c2)n[nH]1,2.2,3.9,14.5,-3.0,/,i,5.0,-8.8,
CCS(=O)(=O)c1ccc(C(=O)NC)c(Cl)c1Cl,-1.7,-2.1,-5.1,3.9,14.4,i,/,3.0,
Cn1c2ccccc2c2n[nH]c(=O)nc21,3.5,5.5,-5.4,-1.1,21.7,i,/,-0.1,
Cc1ccc2[nH]c(CSc3ccccc3)cc(=O)c2c1,-2.4,-15.7,7.9,-16.3,18.3,i,-7.5,0.8,
Cc1nc(NCc2ccccn2)c2c3c(sc2n1)CCCC3,-1.1,-6.4,12.0,-3.0,-4.2,i,/,0.9,

# Compounds listed so far with a cyano group (two):
SMILES,MT1-MMP act inh,MT1-MMP act inh RFP,CSC inhib,eIF4H inh,HIV Env fusion,Rce1 inhib,UUG fidelity,PABP FP inh,others
C=CCC1(C#N)C(=S)NC2=C(C(=O)CC(C)(C)C2)C1c1ccc(Br)cc1 (stereo not given),0.3,3.3,-3.7,-5.9,1.9,i,-16.1,1.9,
N#CCCn1cc(C(CC(=O)c2ccccc2)C(=O)O)c2ccccc21 (stereo not given),-0.5,1.0,-1.5,-5.0,14.9,i,-7.3,-4.3,
